Choline anaer gr – growth inhibitors of anaerobic choline-fed gram-negatives, minimal medium, absorbance | Gram-negative bacterium anaerobic choline minimal medium; stronger effect = lower value; many inactives read as strong as hits in the columns shown | calls only | hit rate 0.2% among 55,000;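 active = growth z-score on choline under -2 at 7 or 20 h with little or no fall on glycerol, limits in tiers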;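 note: stock transfer was 300 nL into about 50 µL; the organism is E. coli; final concentration not given here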
Choline anaer gr early – recorded beside Choline anaer gr, whose call it bears; z-score; measured here: choline growth z-score, timepoint 1;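 score of optical density at 7 h as mean of two plates; lower means less growth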
An asterisk follows results filed as active; i = inactive; & = joins results of further samples. An excerpt; the hit share may differ from the screen's.

SMILES	Choline anaer gr	Choline anaer gr early
O=C(Cc1ccccc1)NCc1nc(-c2ccc3c(c2)Sc2ccccc2C(=O)N3C2CC2)no1	i	0.81
COc1cccc(-c2cc3n(C)c(C)c(CCC(=O)NCC4CCCO4)c(=O)n3n2)c1 (stereo unspecified)	i	0.05
CC(=O)Oc1ccc(Br)cc1C1OC(c2cc(C3CC3)nc3ccccc23)=NN1C(C)=O (stereo unspecified)	i	2.1
CCCCCC[C@@H]([C@@H](C)O)n1cnc2c(N)ncnc21	i	0.17&0.72
Cc1nc2ccccn2c(=O)c1Cc1nnc(SCc2cc(=O)c3cccc(C)c3[nH]2)n1C	i	-0.19
Cc1c(C(=O)N2CCCC2)cccc1-n1nnc2cccnc21	i	-1.3
COc1ccc(OC)c(C(=O)c2c(N)c(-c3nc(-c4ccc(C)cc4)cs3)c3ccccn23)c1	i	0.35
CCCc1c(C(=O)OCC)nnc2c(-c3ccc(Br)cc3)c(C)nn12	i	0.23
O=C(O)c1cc(NS(=O)(=O)c2ccc3c(c2)CCCC3)ccc1N1CCN(C2CCCCC2)CC1	i	-1.5
COc1ccc(Cl)cc1S(=O)(=O)n1cnc(C)c1	i	-0.11
COc1ccc(NC(=O)C(C)SC2=Nc3ccccc3C3=NC(C)C(=O)N23)cc1 (stereo unspecified)	i	-0.84
Cc1cc(C)cc(OCC(=O)Nc2nnc(SCc3cc(=O)n4oc(C)cc4n3)s2)c1	i	-0.04
Cc1cc(N2CCn3c(nc4cc(Cl)ccc43)C2)ccc1NS(C)(=O)=O	i	-1.8
CC(C)c1ccc(-c2nn3c(=O)c(NC(=O)c4ccc(Cl)cc4)cnc3o2)cc1	i	0.54
COC(=O)c1ccccc1NC(=O)c1ccc(F)cc1	i	-0.42&0.71
COc1ccc(C(C)(O)C(CN2CCOCC2)c2ccc(Cl)cc2)cc1 (stereo unspecified)	i	-1.4
Clc1ccc(Cc2nc3nc4c(c(NCc5ccc6c(c5)OCO6)n3n2)CCC4)cc1	i	0.77
Cc1ccc(NC(=O)NC(Cc2ccccc2)Cc2ccccc2)cc1	i	0.26
O=C(NCc1cccc(Cl)c1)c1ccc(SCCN2CCCCC2)nc1	i	-3.7
Cc1cc(-c2c(C)sc(C)c2S(=O)(=O)NCc2ccccc2Cl)n[nH]1	i	-0.23
Cc1ccccc1-c1cc(N2CCN(S(=O)(=O)c3cnn(C(F)F)c3C)CC2)ncn1	i	-1
O=C(Nc1ccc(Br)cc1)c1cccc(-c2cc(N3CCCC3)ncn2)c1	i	-0.38
Cc1ccccc1Cn1nc(C)c2c(C)onc2c1=O	i	-0.77
Cc1c(S(=O)(=O)N2CCN(C3CCCCC3)CC2)cc(-c2nc(-c3ccccc3)cs2)n1C	i	0.21
O=C(Nc1ccccc1)N1CCC2(CC1)Nc1cc(F)ccc1-n1cccc12	i	-0.52
COc1cc(CNC(C)(C)C)ccc1OCc1ccc2c(c1)n(C)c(=O)n2C	i	0.1
Cc1ccc(-c2nccc(Oc3ccc(C(=O)NCCC4=CCCCC4)cc3)n2)cc1	i	0.88
Cc1ccc2c(c1)Oc1cc(Cl)c(S(=O)(=O)N3CCCCC3)cc1C(=O)N2	i	1.1
CCCn1nnc2cc(-c3noc(-c4cnccn4)n3)ccc21	i	-0.1
CCSc1nccc2c1ccn2CC(=O)NCc1cccc(Br)c1	i	-0.12

Reprinted from the part before: 5 entries, followed by the next part.
SMILES	Choline anaer gr	Choline anaer gr early
COc1cc(CNC(C)(C)C)ccc1OCc1ccc2c(c1)n(C)c(=O)n2C	i	0.1
Cc1ccc(-c2nccc(Oc3ccc(C(=O)NCCC4=CCCCC4)cc3)n2)cc1	i	0.88
Cc1ccc2c(c1)Oc1cc(Cl)c(S(=O)(=O)N3CCCCC3)cc1C(=O)N2	i	1.1
CCCn1nnc2cc(-c3noc(-c4cnccn4)n3)ccc21	i	-0.1
CCSc1nccc2c1ccn2CC(=O)NCc1cccc(Br)c1	i	-0.12
COC(=O)C1=CN(C2CC2)c2cc(N3CCCC(C)C3)c(F)cc2S1(=O)=O (stereo unspecified)	i	-1.1
CN1C(=O)c2cc3ccccc3n2CC1(C)C(=O)NCC(=O)NCc1ccccc1Cl (stereo unspecified)	i	0.32
CN(C)C(=O)CN1CCN(C(=O)c2ccc(N3CCNCC3)c(NS(C)(=O)=O)c2)CC1	i	-1.1
Cc1[nH]c(C)c(S(=O)(=O)NC2CCCC2)c1-c1nnc(C2CCC2)o1	i	0.16
CC(C)Sc1cc2c(cc1NC(=O)c1ccc(F)cc1)n(C)c(=O)n2C	i	-0.55
CCOC(=O)CNC(=O)N1CCC2(CC1)Nc1cc(OC)ccc1-n1cccc12	i	0.19
Cc1cc(C)c2c(-n3cccc3)nn(CC(=O)NCc3ccccn3)c2n1	i	0.72
CCCN1CCN(CCCNC(=O)c2ccc3nc(CC)c(CC)nc3c2)CC1	i	-0.75
CCS(=O)(=O)N1CCc2nc[nH]c2C1	i	0.51
O=C(NCCN1CCCCC1)c1ccc(CN2C(=O)CCn3nc(-c4ccc(Cl)cc4)cc32)cc1	i	0.43
Cc1cc(NCCOCCO)n2ncc(-c3ccc(F)cc3)c2n1	i	-0.39
COc1ccc(-c2noc(N3CCC(C(=O)NCc4ccc5c(c4)OCO5)CC3)n2)cc1OC	i	-0.31
S=C=Nc1cccc(NC(=S)NCCCCNC(=S)Nc2cccc(N=C=S)c2)c1	i	0.45
CCNC(=O)N1CCCC(c2nc(C(C)C)cs2)C1 (stereo unspecified)	i	0.25
COCC(=O)N1CCCC(c2nc(C)cs2)C1 (stereo unspecified)	i	0.59
CCCCC[C@](C)(O)/C=C/[C@H]1[C@H](O)CC(=O)[C@@H]1C/C=C\CCCC(=O)O	i	-0.09
CCC(CC)C(=O)NCC1(N2CCN(C)CC2)CCCCC1	i	-1.1
O=C(Nc1ccc2nc(SCC(=O)N3CCOCC3)sc2c1)c1ccc(Cl)cc1	i	-0.19
Cn1cc(C(=O)Nc2ccc(Br)cc2)c2[nH]c(=O)n(-c3ccccc3)c(=O)c21	i	-0.28
CCC(C)NC(=O)CCn1c(=O)c2ccccc2n2c(=S)[nH]nc12 (stereo unspecified)	i	0.34
C=Cc1ccc(Cn2c(=O)c3cnc(-c4ccc(C)cc4)nc3n(C)c2=O)cc1	i	0.03
Cc1c(C(=O)N2CCC(C)CC2)oc2ccc3c(c12)C(O)CC(C)(C)O3 (stereo unspecified)	i	0.17
COc1cc(NC(=O)C2CCN(S(=O)(=O)c3cc(-c4noc(C)n4)sc3C)CC2)cc(OC)c1	i	0.38
CCc1cc(-c2csc(S(=O)(=O)NCc3ccc(Br)cc3)c2)on1	i	0.36
COC(=O)Nc1ccc2[nH]cc(CCNC(C)=O)c2c1	i	0.54
CC1(C)CN(CC(=O)N2CCCC2)c2ccc(S(=O)(=O)N3CCCCCC3)cc21	i	0.83
COc1ccc(-n2nc(C(=O)Nc3ccccn3)c(=O)n(C)c2=O)cc1	i	1.4
CCCc1cc(C2CCCN2C(=O)Nc2ccc3c(c2)OCCO3)no1 (stereo unspecified)	i	-0.17
O=c1[nH]c2cc3c(cc2c(=O)n1Cc1nc(-c2ccc(Br)cc2)no1)OCO3	i	-0.01
Cc1ccnc(Nc2nc(-c3ccccc3Cl)cs2)c1	i	-2
CCOC(=O)c1[nH]c(C)c(CN(Cc2ccc(C)cc2)C(=O)Nc2cc(C)ccc2OC)c1C	i	0.42
Cc1nn(-c2ccccc2)c2c1nc(CCC(=O)Nc1cccc(Cl)c1)c(=O)n2C	i	1.3
O=C1COc2cc(S(=O)(=O)N3CCCC3C(=O)NCc3ccc4c(c3)OCO4)c(Cl)cc2N1 (stereo unspecified)	i	-1.8
Cc1cc(N(C)C)n2nc(C(F)(F)F)c(-c3ccc(F)cc3)c2n1	i	0.29
Cc1nc(-c2ccc(C(=O)Nc3cc(Cl)ccc3C)cc2)no1	i	1.5
O=c1oc(Cl)c(Cl)c2ccccc12	i	0.51&0.65
O=C(Nc1ccc(F)c(F)c1)c1cc(-c2ccncc2)n[nH]1	i	-1.5
CC1CCC(NC(=O)C2(C)Cn3c(cc4occc43)C(=O)N2CCN2CCCC2)CC1 (stereo unspecified)	i	0.46
O=C(c1ccsc1)N1CCN(C(=O)c2cc(-c3ccccn3)n[nH]2)CC1	i	0.05
CCOc1ccc(NS(=O)(=O)c2cc(C(=O)N3CCN(c4ccccc4)CC3)n[nH]2)cc1	i	1.2
CC(C)NC(=O)c1nsc(C(=O)N2CCSCC2)c1N	i	-2.4
CC(C)NC(=O)N1CCCC(c2cccc(C(=O)N3CCCCC3)c2)C1 (stereo unspecified)	i	-1.5
CNCCCC12CCC(c3ccccc31)c1ccccc12	i	0.51&-0.43&-0.69&-1.1&-1
Cc1cccc(NC(c2cccnc2)c2ccc3cccnc3c2O)c1 (stereo unspecified)	i	0.23
CC(C)(C)c1csc(-c2csc(S(=O)(=O)NCc3ccccc3)c2)n1	i	1.2
CCCOc1ccc(CN2CCCC2c2cc(C)on2)cc1OC (stereo unspecified)	i	0.17
Cc1nnc2ccc(-n3ncc4c3NC(=O)CC4c3ccc(OC(C)C)cc3)nn12 (stereo unspecified)	i	-1.2
CC(C)CCNS(=O)(=O)c1cc(C(=O)N2CCCC2)cs1	i	-0.85
Cc1noc(C)c1S(=O)(=O)n1cc2c(=O)n(C)c(=O)n(C)c2n1	i	0.32
CCCCCC(=O)N1c2ccccc2NC2=C(C(=O)CC(C)(C)C2)C1c1ccccc1OC (stereo unspecified)	i	0.65
COc1ccc(Nc2c3c(nc4ncnn24)CCC3)cc1OC	i	-0.4
Cc1ccccc1C(=O)c1cccn1CC(=O)NC(C)c1ccccc1 (stereo unspecified)	i	0.59
CC(C)CNC(=O)CN1CCN(c2cc(C(=O)O)c3cc(NC(=O)C4CC4)ccc3n2)CC1	i	-0.45
O=C1Nc2ccccc2Oc2cc(Oc3ccccc3Br)c(S(=O)(=O)N3CCOCC3)cc21	i	-0.04
COC(=O)c1noc(C(=O)c2ccccc2)c1N	i	0.34
O=C(NC1CCN(c2ncnc3c2CCC3)C1)c1cnccn1 (stereo unspecified)	i	0.2
CCn1cnnc1C1CCCN(C(=O)c2ccsc2)C1 (stereo unspecified)	i	0.57
CCOc1ccc(-c2nonc2NC(=O)COc2ccc(C)cc2)cc1C	i	-0.43
Cc1noc(C2CCCCN2Cc2cc(F)ccc2F)n1 (stereo unspecified)	i	0.24
COc1ccc(Cn2nc3c(S(=O)(=O)N4CCCC4)cccn3c2=O)cc1	i	0.31

Ordered by the number under Choline anaer gr early (high to low): 3 from the list above.
| molecule | Choline anaer gr early |
| --- | --- |
| CCS(=O)(=O)N1CCc2nc[nH]c2C1 | 0.51 |
| C=Cc1ccc(Cn2c(=O)c3cnc(-c4ccc(C)cc4)nc3n(C)c2=O)cc1 | 0.03 |
| CCC(CC)C(=O)NCC1(N2CCN(C)CC2)CCCCC1 | -1.1 |

Further entries:
SMILES	Choline anaer gr	Choline anaer gr early
CCCN1CCN(c2cc(C(=O)O)c3cc(NS(=O)(=O)c4ccc(C(C)C)cc4)ccc3n2)CC1	i	-0.01
Cc1c2cnn(CC(=O)N3CCC(Cc4ccccc4)CC3)c(=O)c2c(C)n1Cc1ccccc1F	i	0.44
Cc1ccccc1-c1ncccc1C(=O)N1CCC(C(=O)NC(C)CCc2ccccc2)CC1 (stereo unspecified)	i	0.01
O=C(Cn1nc(C(=O)Nc2ccccc2)ccc1=O)Nc1ccc(F)c(F)c1	i	0.49
CCN1CCN(C(=O)c2cc3n(n2)CC(C)(C(=O)NC2CCCC2)N(C)C3=O)CC1 (stereo unspecified)	i	1
CCOc1c(C(=O)OC)sc2ccc(NC(=O)c3[nH]nc4c3CCc3ccccc3-4)cc12	i	-0.48
COc1ccc2c(c1)C=C(C(=O)Nc1nccs1)C=CO2	i	-0.9
O=C(CSc1nccn2nc(-c3ccc(F)cc3)cc12)Nc1ccc2c(c1)OCO2	i	0.28
CCc1nc(-c2ccc(C(=O)NCC(=O)Nc3ccccc3F)cc2)no1	i	0.57
C=CCn1c(CN2CCOCC2)nc2ccccc21	i	-0.63
Cc1ccc2[nH]cc(CCNC(=O)c3ccc(N4CCCC4)c(S(=O)(=O)N4CCCC4)c3)c2c1	i	0.19
CCn1c(=O)c2sccc2n2c(SCc3ccc(N4CCCC4=O)cc3)nnc12	i	0
Cc1ccc(S(=O)(=O)Nc2ccc(Sc3c(C)c(C)nc4ncnn34)cc2)cc1C	i	1.3
Cc1ccc(NC(=O)c2ccc3nnc(C)n3c2)c(C)c1	i	-0.54
Cc1nc2nc(C)c(CCC(=O)N3CCN(c4ccc(F)cc4)CC3)c(C)n2n1	i	0.34

4 of the compounds above, field by field:
Cc1ccccc1-c1ncccc1C(=O)N1CCC(C(=O)NC(C)CCc2ccccc2)CC1 (stereo unspecified)
  Choline anaer gr = i	Choline anaer gr early = 0.01
O=C(Cn1nc(C(=O)Nc2ccccc2)ccc1=O)Nc1ccc(F)c(F)c1
  Choline anaer gr = i	Choline anaer gr early = 0.49
CCN1CCN(C(=O)c2cc3n(n2)CC(C)(C(=O)NC2CCCC2)N(C)C3=O)CC1 (stereo unspecified)
  Choline anaer gr = i	Choline anaer gr early = 1
CCOc1c(C(=O)OC)sc2ccc(NC(=O)c3[nH]nc4c3CCc3ccccc3-4)cc12
  Choline anaer gr = i	Choline anaer gr early = -0.48

Next part.
SMILES	Choline anaer gr	Choline anaer gr early
O=C(Nc1ccccc1)c1nnc(CCC(=O)N2CCN(c3ccccn3)CC2)s1	i	-0.62
COc1cc(-c2noc(-c3cc(-c4cc(C)ccc4C)n[nH]3)n2)ccc1OC(C)C	i	0.47
CCOC(=O)CCc1c(C)nc2nc(CNc3ccc(F)cc3)[nH]n2c1=O	i	-0.4
c1ccc2nc(-c3nn4c(C5CCCCC5)nnc4s3)ccc2c1	i	0.4
Cc1ccc(Cc2nc(CCNS(=O)(=O)c3cc(C)ccc3C)n[nH]2)cc1	i	-0.68
CNC(=O)c1ccc2c(c1)nc1n2CCCCC1	i	-2.7

Source: PubChem (ICCB-Longwood Screening Facility, Harvard Medical School)
